# Assay outcomes (PubChem BioAssay)
# NPYLR7 agonist: agonists of mosquito NPYLR7 receptor, primary screen, cell-based, Aedes aegypti, calcium fluorescence, mosquito biting behavior. HEK293T NPYLR7/Galpha15, GCaMP6s calcium fluorescence. activation, % at 10 µM. 270,000 compounds, 0.15% hits. AID 1259423, 2018; in the data active = activation above about 40%;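 also: 0% = vehicle and 100% = reference agonist at the receptor; some compounds past the cut are filed as inactive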
# NPYLR7 agonist max-min: further read-out of NPYLR7 agonist, marked with its call; activation, %; measured here: Max-Min RFU normalised activation; some inactives read as strong as hits;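 span of the calcium signal over five minutes; 0% = vehicle and 100% = native peptide agonist; compound fluorescence can raise it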
# The depositor's hits bear a star; & = joins results of further samples.
smiles,NPYLR7 agonist max-min,NPYLR7 agonist
CCOC(=O)c1[nH]ncc1CN1CCN(Cc2ccc(C)cc2)C(CCO)C1 (centres undefined),6,9
CC1(C)CN=C(N2CCN(c3nc(-c4ccccn4)nc4c3CCC4)CC2)S1,101,0
Cc1cc(=O)[nH]c(NCCn2cc(C(C)c3ccccc3)nn2)n1 (centres undefined),1,7
COCCOc1nc(-c2ccc(C(F)(F)F)cc2)n(-c2cccc(NC(=O)Nc3ccc(F)cc3F)c2)n1,2,-2
C=CC1=C(C(=O)O)N2C(=O)[C@@H](NC(=O)C(=NOCC(=O)O)c3csc(N)n3)[C@H]2SC1,-6,-4
Cc1ccc(S(=O)(=O)N(C)C)cc1NC(=O)C1CCCC1,2,5
O=C(Nc1ccncc1)c1cccnc1Sc1ccc(Br)cc1,7,15
COc1cc(OC)cc(C(=O)N2CCN(c3cc(S(=O)(=O)N(C)CCc4ccc(OC)c(OC)c4)ccc3OC)CC2)c1,3,6

# Reformatted as labelled records: entries from further up
COCCOc1nc(-c2ccc(C(F)(F)F)cc2)n(-c2cccc(NC(=O)Nc3ccc(F)cc3F)c2)n1
  NPYLR7 agonist max-min: 2; NPYLR7 agonist: -2

C=CC1=C(C(=O)O)N2C(=O)[C@@H](NC(=O)C(=NOCC(=O)O)c3csc(N)n3)[C@H]2SC1
  NPYLR7 agonist max-min: -6; NPYLR7 agonist: -4

# 7 entries drawn at random from the list so far:
smiles,NPYLR7 agonist max-min,NPYLR7 agonist
C=CC1=C(C(=O)O)N2C(=O)[C@@H](NC(=O)C(=NOCC(=O)O)c3csc(N)n3)[C@H]2SC1,-6,-4
CCOC(=O)c1[nH]ncc1CN1CCN(Cc2ccc(C)cc2)C(CCO)C1 (centres undefined),6,9
O=C(Nc1ccncc1)c1cccnc1Sc1ccc(Br)cc1,7,15
Cc1ccc(S(=O)(=O)N(C)C)cc1NC(=O)C1CCCC1,2,5
COc1cc(OC)cc(C(=O)N2CCN(c3cc(S(=O)(=O)N(C)CCc4ccc(OC)c(OC)c4)ccc3OC)CC2)c1,3,6
Cc1cc(=O)[nH]c(NCCn2cc(C(C)c3ccccc3)nn2)n1 (centres undefined),1,7
CC1(C)CN=C(N2CCN(c3nc(-c4ccccn4)nc4c3CCC4)CC2)S1,101,0

# Additional results
smiles,NPYLR7 agonist max-min,NPYLR7 agonist
COc1ccc(C2c3cccn3CCCN2Cc2cc([N+](=O)[O-])ccc2OC)cc1 (centres undefined),8,-2
COc1nc(-c2ccc(C(F)(F)F)cc2)n(-c2cccc(NC(=O)C3CCC3)c2)n1,3,0
CCCC(O)CN1CCC(=O)N(C(C)C)Cc2ccccc21 (centres undefined),6,-1
Cc1cc(CN2CCN(Cc3cc4c(cc3O)OCO4)CC2)no1,0,-2
Cc1cccc(N2CC(C)Cn3c2nc2c3c(=O)n(CCN3CCOCC3)c(=O)n2C)c1 (centres undefined),-5,-4
COc1cc(-c2nc(C=Nc3cccc(F)c3)c(O)o2)cc(OC)c1OC,-12,-5
Cc1ccccc1-c1nnc(SC(C)C)n1C,-10,-5
CCn1cc(S(=O)(=O)N2CCCc3cccc(NC(C)=O)c32)cn1,6,14
COc1ccccc1Cc1nc2c(c(N3CCOCC3)n1)CN(S(=O)(=O)c1c(C)cc(C)cc1C)CC2,18,13
CSc1nc2nc(C)cc(C)n2n1,11,2
C=CCOC1CCCN(C(=O)c2ccc([N+](=O)[O-])cc2)C1 (centres undefined),1,-1
CCC1CCC2(CC1)NC(=O)N(CC(=O)Nc1ccnn1C(C)C1CC1)C2=O (centres undefined),8,3
COc1ccc(-c2nc3nc(-c4ccc(OC)cc4OC)cc(C(=O)O)c3[nH]2)cc1,3,5
CC(=Nn1c(-c2ccc(OC(F)F)cc2)csc1=NC(C)C)c1ccc(-n2ccnc2)cc1,-12,-1
CCOC(=O)c1c(NC(=O)c2onc(C)c2Cl)sc(C(C)=O)c1C,3,2
Cc1cccc(N2CCN(C(=O)c3cn(-c4ccc(C#N)cc4)cn3)CC2)c1,-1,1
Cc1cccc(CC(=O)Nc2c(C)nc3ccccn3c2=O)c1,0,2
Cc1ccc(C(=O)NCc2cccc(CN(C)C)c2)cc1F,4,7
CC1(C)CC2CC(C)(CN2S(=O)(=O)c2cc(Br)ccc2Br)C1 (centres undefined),-8,-3
c1ccc2c(c1)oc1c(C3NCCc4[nH]cnc43)cccc12 (centres undefined),10,19
CC(C)c1nnc(-c2cc3ccccc3n2CC(=O)Nc2ccc3c(c2)OCO3)o1,11,15
CCCCCCCCCCCCS(=O)(=O)CCS(=O)(=O)CCC(=O)OC,6,11
Cc1nc(SCC(=O)Nc2ccc3c(c2)OC2(CCCCC2)O3)n[nH]1,2,1
CN(Cc1ccc(Cl)s1)C(=O)CN1C(=O)N(C)C2(CCCCC2)C1=O,29,0
Cc1cc(N2CCCN(Cc3ccc(C4CCCCO4)o3)CC2)ccn1 (centres undefined),2,0
CCC(C)N(Cc1ccc(OS(=O)(=O)c2cccc(C(F)(F)F)c2)cc1)C(=O)c1ccccc1Br (centres undefined),22,17
Cc1ccc(F)c(N2CCN(Cc3ccc(F)cc3F)C(C)C2=O)c1 (centres undefined),0,-2
O=C(CN1CCC2CCCCC2C1)Nc1cccc2nsnc12 (centres undefined),-5,-2
COc1ccccc1NC(=O)N1CCSC1c1ccc(C(C)(C)C)cc1 (centres undefined),18,18
Cc1nc2ccccc2n1S(=O)(=O)N(C)C,8,16
CC(C)(C(=O)N1CCC1(C)C(=O)NS(=O)(=O)c1cccc(OC(F)F)c1)c1ccccc1 (centres undefined),-6,-2
CN1CCC(C)(C(=O)Nc2cccc(Cl)c2)C1 (centres undefined),2,3
Cc1cc(-c2ccc(Cl)cc2)nc2c1c(C)nn2CCO,4,4
Cc1cccc(CCNC(=O)CC2C(=O)NCCN2CC2CCCCC2)n1 (centres undefined),-3,-1
O=C(NC1(c2ccc(F)cc2)CCCC1)C1Cc2ccccc2S1 (centres undefined),7,0
Cc1ccc(C2c3cccn3CCCN2Cc2ccccc2[N+](=O)[O-])cc1C (centres undefined),-5,-3
COc1cccc(CN2CCC2(C)C(=O)Nc2cccc3cccnc23)c1OC (centres undefined),0,0
COc1cccc(O)c1CNC1CCCN(CCCc2ccccc2)C1 (centres undefined),6,7
CC1CC(C)CN(Cc2csc3c2CCCC3)C1 (centres undefined),-1,0
CC(C)(C)NC(=O)NC(=O)COC(=O)c1ccccc1Cc1ccccc1,-1,-2
CC(C)Sc1nnc(CNC(=O)C23CC4CC(CC(C4)C2)C3)n1CCc1ccccc1,-2,-1
CN(CC(=O)N1CC[C@@H](c2ccc3c(c2)OCO3)[C@H](O)C1)Cc1ccncc1,-3,1
Cc1nc(-c2ccc(-n3cnnc3)cc2)n[nH]1,1,3
CCOC(=O)C1=C(C)NC(=O)NC1c1ccc([N+](=O)[O-])o1 (centres undefined),8,9
COc1ccc(-c2c(-c3ccccc3)ncn2CCc2cnc[nH]2)c(F)c1F,-3,1
O=C(C1CCCN(C2CCN(CCCc3ccccc3)CC2)C1)N1CCCC1 (centres undefined),-3,-1
COc1ccc(NC2CCCNC2)cc1OC (centres undefined),3,6
COC(=O)c1ccc(CN2CCCC2)o1,6,1
O=C(OCC(=O)C12CC3CC(CC(C3)C1)C2)C1CC2CCCC(C1)C2=O (centres undefined),-4,-2
Nc1cc(C(=O)NCC(c2ccc(Cl)cc2)N2CCCC2)[nH]n1 (centres undefined),3,4
Cc1ccc(CCC2CCN(C(=O)C3CC(=O)N(Cc4ccco4)C3)CC2)cc1 (centres undefined),-8,-7
O=C(CCN(Cc1ccccc1)c1nc(C2CC2)nc2ccccc12)Nc1ccccc1F,12,0
CN1C(=O)NC(c2ccc(F)cc2)C2=C1CN(CC(=O)N1CCN(c3ccccn3)CC1)C2=O (centres undefined),2,-1
CCc1nc2ccc(C(=O)NCCN3CCNC3=O)cn2c1N(C)C(=O)Nc1ccccc1OC,-8,-6
COc1cc(C2C(C(N)=O)=C(C)Nc3ncnn32)ccc1OC(F)F (centres undefined),-2,2
COc1cc(OC)cc(-n2c(CCC(=O)NCCOc3ccccc3)cc3c2-c2ccccc2CC3)c1,4,3

# The list goes on.
smiles,NPYLR7 agonist max-min,NPYLR7 agonist
COc1ccc(C2CC(=O)C3C(=Nc4ccccc4NC3c3ccc(C)o3)C2)cc1 (centres undefined),-3,2
COc1cccc(Cn2c(C(=O)N3CCN(C(=O)Nc4ccccc4F)C(C)C3)cc3ccoc32)c1 (centres undefined),5,3
O=C(c1ccc2oc(-c3ccc(C(F)(F)F)cc3)nc2c1)N1CCC(O)CC1,2,4
CCOc1ccccc1CNC(=O)c1cc(N2CCOCC2)nc2ccccc12,20,10
CCOC(=O)C1CCCN(C(=O)c2csc(COc3ccc([N+](=O)[O-])cc3)n2)C1 (centres undefined),4,-1
C=CCN(Cc1ccccc1OC)C(=O)c1cnc(N2CCN(C)CC2)nc1C,5,17
CN1CCN2C[C@@H](NC(=O)CCc3nc4ccccc4[nH]c3=O)C[C@H]2C1,-3,6
CSc1ccc(CNC(=O)C2CCC(=O)N(Cc3ccccn3)C2)cc1 (centres undefined),3,4
CSc1ncccc1C(=O)N1CCC(CCC(=O)NCc2ccc(F)cc2)CC1,9&24,15&26
CC(c1ccccc1)N1CCN(S(=O)(=O)c2c(F)cccc2F)CC1 (centres undefined),0,7
CN(C)C=Nc1c(C(C#N)=C(C#N)C#N)c(=O)n(C)c(=O)n1C,4,10
O=C(Nc1nccs1)C1CC(=O)N(c2ccccc2)C1 (centres undefined),5,7
CC(=O)Nc1ccc(S(=O)(=O)Oc2ccc(CN(Cc3ccco3)C(=O)c3ccccc3Cl)cc2)cc1,4,0
CCN(CC)S(=O)(=O)c1ccc(N=Nc2c(C)nn(-c3ccccc3)c2N)cc1,-17,-11
COc1cccc(Oc2cc(C(C)C)nc(SCc3cccc(F)c3)n2)c1,10,1
Fc1cccc(-c2cc(N3CCN(Cc4cccnc4)CC3)n3nccc3n2)c1,-11,-7
O=S(=O)(NCC1(N2CCOCC2)CCCCC1)c1ccc2c(c1)CCCC2,9,4
COc1ccc(OC)c(/C=C2N=C(/C=C/c3ccc(Cl)cc3Cl)OC\2=O)c1,-26,-22
COCCNC(=O)c1ccc(Nc2c(Oc3ccc(F)cc3)cnn(-c3ccc(F)cc3)c2=O)cc1,7,0
CCOC(=O)C1(Cc2cccc(Cl)c2)CCCN(C(=O)c2c(CC)noc2C)C1 (centres undefined),3&18,3&0
COCCCN(C(=O)Nc1ccc(F)c(F)c1)C1CCN(C)CC1,6,18
Cc1nc2nc(C)c(CCC(=O)NC(C)(C)c3noc(C(C)(C)C)n3)c(=O)n2[nH]1,1,1
Cc1ccc(Cl)cc1-n1c(SCc2nc(C(=O)N3CCC(Cc4ccccc4)CC3)cs2)nnc1-c1ccco1,14,17
Cc1cc(C)cc(-c2nc3ccc(C)cn3c2N)c1,4,4
CSc1ccccc1NC(=O)C(C)n1ncccc1=O (centres undefined),-1,-1
CCOC(=O)Cc1c(C)nc2ncnn2c1N(CCCN(C)C)CCCN(C)C,12,19
CC(=O)c1ccc(OC(C)c2nc(C3CC3)no2)cc1F (centres undefined),-3,-3
CCCCC(=O)NCCc1cc(OC)c(OC)cc1[N+](=O)[O-],1,10
CC(CNc1ccc(C(=O)Nc2nncs2)cn1)c1cccs1 (centres undefined),2,3
Cc1ccccc1-c1ccc(=O)n(CC#N)n1,7,12
O=C1CN(Cc2ccco2)C(=S)N1C1CC1,1,0
Cc1ccnc(Nc2nc(-c3c(C)nc4cc(C)ccn34)cs2)c1,-10,-8
Cc1cc(NCCOCCO)n2nc(C)c(-c3ccc(Cl)cc3)c2n1,2,5
CCn1c(C2CCNCC2)nn(CC(=O)NC(C)c2ccc(C)cc2)c1=O (centres undefined),15,19
CN(CC1CCCNC1)C(=O)CCSCc1ccc(F)cc1 (centres undefined),-2,3
CCc1nc2ccc(C(=O)N3CCCCC3)cn2c1N(CC)CCOC,13,13
CN(C)c1ccc(C(CNS(C)(=O)=O)N(C)C)cc1 (centres undefined),-2,-1
N#CC1(c2ccc(C(F)(F)F)cn2)C(=O)CC1(C1CC1)C1CC1 (centres undefined),0,1
CC(C(=O)N1CCS(=O)(=O)C(C)(C)C1)c1ccc(Cl)s1 (centres undefined),-6,-5
Cn1cc(CN2CCC(c3n[nH]c(=O)n3Cc3ccccc3)CC2)cn1,4,8
O=c1[nH]nc(-c2cc(NS(=O)(=O)c3ccccc3)cc(C(F)(F)F)c2)[nH]1,2,5
CCCCCc1ccc(-c2nc(C3CCC(CCCC)CC3)no2)cc1 (centres undefined),-18,-6
COc1ccc(C2c3cccn3CCCN2Cc2ccc(F)cc2F)cc1OC (centres undefined),17,10
COc1ccc(CCNC(=O)c2cccnc2N2CCN(C(=O)[C@H](C)OC(C)=O)CC2)cc1OC,13,22
COc1ccc(OC)c(NC(=O)C2(C)CCN2Cc2ccccc2Cl)c1 (centres undefined),5,13
COc1cccc(CSc2nnc(CNC(=O)Nc3cc(OC)cc(OC)c3)n2-c2ccc(C)cc2)c1,-9,-8
Cc1ccc(C2=N/C(=C\c3ccc(N(C)C)cc3)C(=O)O2)cc1,-7,-4
CC(Nc1ncnc2ccccc12)c1ccc(C#N)cc1 (centres undefined),0,1
O=C(CCc1cc(=O)[nH]o1)N1C[C@@H]2C3CCC(CC3)[C@@H]2C1,-9,4
COc1ccc(CC(=O)Nc2c3c(nn2C(C)(C)C)CSC3)cc1OC,-7,-5
Cc1ccc(S(=O)(=O)N2CCN(c3ncnc4c3nnn4C)CC2)c(C)c1,2,-1

# These rows are one share of the data, so the mix of outcomes need not match the whole.
